# Screening data (PubChem BioAssay)
# Cruzain Triton = qHTS Assay for Promiscuous and Specific Inhibitors of Cruzain (with detergent) | Cruzipain (Trypanosoma cruzi), P25779 | purified cruzain, Z-FR-AMC fluorescence, 0.01% Triton | Potency, µM, for inactives: max response, negative = inhibition, usual class: inhibitors | actives 0.43% (n = 200,000);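 also: plate controls were neutral wells for no effect and buffer without enzyme for full effect; nearly all actives have a fitted effect of over 40% in size; top concentration of the series not given in the record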
# Target sequence (P25779 123-467 limits assumed): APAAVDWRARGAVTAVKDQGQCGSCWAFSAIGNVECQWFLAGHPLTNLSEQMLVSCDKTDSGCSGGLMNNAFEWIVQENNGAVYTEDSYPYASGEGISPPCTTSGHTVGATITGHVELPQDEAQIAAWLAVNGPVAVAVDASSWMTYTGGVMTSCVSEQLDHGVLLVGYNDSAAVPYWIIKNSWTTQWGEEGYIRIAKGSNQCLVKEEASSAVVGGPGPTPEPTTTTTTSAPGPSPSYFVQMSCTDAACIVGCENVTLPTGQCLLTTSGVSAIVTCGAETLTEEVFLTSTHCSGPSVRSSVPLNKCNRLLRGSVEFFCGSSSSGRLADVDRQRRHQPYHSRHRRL
#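 Enzyme 1.5 nM, Z-FR-AMC 2 uM, NaOAc 100 mM pH 5.5, DTT 5 mM, Triton X-100 0.01%; 15 min RT compound preincubation; kinetic ex360/em450, 60 s delta.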
# MARV entry inh = qHTS for inhibitors of binding or entry into cells for Marburg Virus. Marburg virus pseudotyped entry inhibition, cell reporter; control for the full effect not named in the record; about a third of the inactives were read at about 46 µM. actives 1.8% (n = 300,000). Potency, µM (top dose mostly 37.8 µM), without a hit: at the top dose activity change, negative = inhibition, usual class: inhibitors; active = well fitted inhibition curve with a large enough effect; inconclusive = small, poorly fitted or top-dose-only effect, or effect the other way; inactive = flat fitted curve, though single readings scatter; tested in HEK293 cells; about a fifth of its hits are not listed in these tables; also: % is scaled to controls: 0 for no effect and ±100 for the full control effect; luciferase read-out
# Lassa entry inh = qHTS for Inhibitors of binding or entry into cells for Lassa Virus | Lassa virus pseudotype entry inhibition, cell reporter; control for the full effect not named in the record | Potency, µM (highest dose often 37.9 µM), without a hit: top-dose activity change, negative = inhibition, actives largely listed as inhibitors | actives 1.2% (n = 300,000) | AID 540256, 2011; active means well fitted inhibition curve with a large enough effect; inconclusive means small, poorly fitted or top-dose-only effect, or effect the other way; inactive means flat fitted curve, though single readings scatter; tested in HEK293 cells; also: % is scaled to controls: 0 for no effect and ±100 for the full control effect; nearly all actives have a fitted effect of over 50% in size; luciferase read-out
# RE007 growth inh = qHTS Assay for Inhibitors of the HIV-1 protein Vpr | S. pombe RE007 Vpr strain, BacTiter-Glo ATP luminescence, 24 h; control for the full effect not named in the record | Potency, µM (highest dose often 92.2 µM), for inactives: at the highest dose activity change, negative = less growth | actives 0.21% (n = 360,000) | AID 651644, 2012; active = well fitted falling curve with a large enough effect; inconclusive = small, poorly fitted or top-dose-only effect; inactive = no such curve, though single readings can be large or run the other way;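 also: % is scaled to controls: 0 for no effect and ±100 for the full control effect; nearly all actives have a fitted effect of over 50% in size; the assay follows cell death caused by Vpr and the record does not say whether a fall means rescue or toxicity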
#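 Fission yeast strain RE007, carrying one chromosomally integrated HIV-1 vpr copy, was seeded at OD 0.01 in PMG+AL medium with 23 nL pinned compound. After 24 h at 30 °C and 99% humidity, viability was read by BacTiter-Glo luminescence.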
# Cruzain inh noDet = qHTS Assay for Promiscuous and Specific Inhibitors of Cruzain (without detergent) | purified cruzain, Z-FR-AMC fluorescence, no detergent | Potency, µM, inactives show max response, negative = inhibition, actives largely listed as inhibitors | actives 2.3% (n = 200,000) | AID 1476, 2009;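 also: plate controls were enzyme without inhibitor for no effect and buffer without enzyme for full effect; nearly all actives have a fitted effect of over 40% in size; top concentration of the series not given in the record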
#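 Purified cruzain at 1.5 nM, pre-incubated 15 min with compound at room temperature in 100 mM sodium acetate pH 5.5, 5 mM DTT, 0.00005% Triton X-100. Reaction started with 2 uM Z-FR-AMC; AMC fluorescence increase over 60 s gives rate.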
# SARS PLpro yeast = qHTS of Yeast-based Assay for SARS-CoV PLP; S. cerevisiae expressing SARS-CoV PLpro, growth rescue; control for the full effect not named in the record; Potency, µM (highest dose often 32.9 µM), inactives show at the highest dose activity, positive = growth rescue; actives 0.19% (n = 330,000); active means well fitted rising curve with a large enough effect; inconclusive means small, poorly fitted or top-dose-only effect; inactive means no such curve, though single readings can be large or run the other way; also: 0% is about no effect; nearly all actives have a fitted effect of over 55% in size; growth read by luminescence after 48 h
# 2A StopGo = High Throughput Screening for Foot and Mouth Disease Virus Antivirals; human cells with a luciferase reporter of 2A StopGo recoding; control for the full effect not named in the record; Potency, µM (doses to about 57.9 µM), for the others: at the top dose signal change, negative = less light; actives 1.2% (n = 410,000); AID 1159524, 2015; active = well fitted falling curve with a large enough effect; inconclusive = small, poorly fitted or top-dose-only effect; inactive = no such curve, though single readings can be large or run the other way; tested in HEK293T cells; also: % is scaled to controls: 0 for no effect and ±100 for the full control effect; nearly all actives have a fitted effect of over 45% in size; luciferase light after 4 h
# NS1 function inh = qHTS Assay for Inhibitors of Influenza NS1 Protein Function | S. cerevisiae slowed by influenza A NS1, growth recovery by OD600 | actives 0.4% (n = 270,000) | Potency, µM (highest dose often 46.1 µM), for inactives: at the top dose activity, positive = more growth | AID 2326, 2010; active means well fitted rising curve with a large enough effect; inconclusive means small, poorly fitted or top-dose-only effect; inactive means no such curve, though single readings can be large or run the other way; also: nearly all actives have a fitted effect of over 50% in size
#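 OD600 was taken as the measure of yeast growth restored by compound in an NS1-expressing S. cerevisiae strain. Cells had been washed out of glucose medium and diluted 1:100 into galactose -URA medium, pH 6.0.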
# The depositor's hits bear a star; ? = inconclusive; . = no result given; & = joins results of further samples; [ ] = dose if it differs, or a comment. Unless noted, calls follow the shape of the dose curve; as a rule, active = well fitted curve in the direction sought with a large enough effect; inconclusive = small, poorly fitted or top-dose-only effect, or another doubt; inactive = no such curve, though single readings can be large; an effect the other way counts as inactive or inconclusive. Potency is read from the fitted curve at half-maximal effect.
SMILES,Cruzain Triton,MARV entry inh,Lassa entry inh,RE007 growth inh,Cruzain inh noDet,SARS PLpro yeast,2A StopGo,NS1 function inh
O=c1c(Cl)c(Nc2cccc(Cl)c2)cnn1-c1nc2ccccc2s1,-9.2%,?,?,29%,?,-5%,37%[activator],7%
COc1cccc(/C=N/NC(=O)c2ccc(N3CCCC3=O)cc2)c1,.,?,?,4%,.,1%,-6%,-1%
COc1ccccc1NC(=O)CSc1oc(-c2cccs2)nc1S(=O)(=O)c1ccc(C)cc1,-3.4%,?,0%[46.1 µM],.,?,.,10%,.
Cc1ccc(-c2n[nH]c(=S)n2/N=C/c2c(C)nn(-c3ccccc3)c2C)cc1,0.8%,?,?,0%,-6%,18%,?,12%
Cc1ncsc1CCOC(=O)c1ccccc1,.,20%[46.1 µM],8%,417%,.,-2%,41%[activator],-7%
CCOc1ccc(C(=O)N[C@H](C(=O)Nc2ccccc2OC)C(C)C)cc1,.,-11%[46.1 µM],1%,2%,.,-6%,-9%,-15%
O=C(O)Cn1nnnc1-c1ccc(F)cc1,3.6%,?,-3%,-4%,11%,0%,-2%,-7%
NC(=O)Cn1c(=O)n(CCc2ccccc2)c(=O)c2c3c(sc21)CCCC3,0.1%,-4%,16%[14.3 µM],10%,?,7%,8%,?
Cc1ccc(CNC(=O)Cn2c(=O)n(-c3ccc(Cl)cc3)c(=O)c3c(C)c(C)sc32)cc1,0.4%,14%[46.1 µM],15%[46.1 µM],.,-5%,.,-13%,.
COc1ccc(N2C(N)=C(C#N)C(c3cc(CN4CCOCC4)cs3)C3=C2CCCC3=O)cc1 (stereo not given),-3.1%,.,?,.,-17%,.,-3%,.
COc1ccc(NC(=O)Cn2cc(C(=O)c3ccncc3)c(=O)c3cc(C)ccc32)cc1Cl,-3.8%,.,3%[46.1 µM],.,-13%,-5%,11%,.
O=CN1CCN(C(=O)c2ccc3c(c2)OCO3)CC1,.,5%[46.1 µM],6%[46.1 µM],13%,.,2%,-8%,-10%
N#Cc1ccc2ccn(CC(=O)N3CCCc4ccccc43)c2c1,-8.8%,-7%,-13%,-1%,?,0%,.,11%
O=C(O)C1CCCCN1S(=O)(=O)c1ccccc1 (stereo not given),-0.9%,-12%[46.1 µM],-6%,11%,-4%,0%,14%,21%
COc1ccc(CC2(CO)CCN(Cc3cccc4nccnc34)CC2)cc1,.,?,19%,-4%,.,-1%,-15%,3%
Cc1ccc(CNC(=O)CSCc2ccccc2)cc1,.,2%,10%,-9%,.,-1%,28%,-5%
O=C(NCC1CC1)c1onc(CSc2ccncc2)c1C(=O)NCC1CC1,.,.,.,16%,.,-1%,0%,8%
O=C1CC(N2CCSCC2)C(=O)N1c1ccc(F)cc1 (stereo not given),.,?,3%,25µM*,.,-3%,-11%,1%
CC1(C(=O)NCc2cccnc2)CCC(=O)N1Cc1cccs1 (stereo not given),0.0%,.,.,10%,4%,5%,-10%,10%
COc1cc(/C=C(\C#N)C(=O)Nc2cccc(C(=O)O)c2)ccc1OCc1ccc(C)cc1,.,-7%[46.1 µM],?,-7%,.,-2%,-5%,-1%
O=[N+]([O-])c1ccc(Oc2cccc(F)c2)c2ccncc12,-6.7%,4%,-12%,-24%,-18%,-32%,?,-86%
COc1ccc(OC)c(NC(=O)Cc2coc3cc(C)cc(C)c23)c1,-2.9%,4%,-25%,-11%,1%,3%,-26%,-60%
Fc1ccc(N2CCN(Cc3ccccn3)CC2)cc1,.,20%[46.1 µM],17%[46.1 µM],7%,.,0%,-3%,.
Cc1nc(Nc2ccccc2F)c2oc3ccccc3c2n1,.,?,-15%,4%,.,-4%,33%[activator],-6%
COCc1cc(C)nc2sc(C(=O)Nc3ccccc3C)c(N)c12,.,7%,-8%,9%,.,-2%,18%,-3%
O=C(COc1ncnc2ccccc12)Nc1ccc(S(=O)(=O)N2CCOCC2)cc1,.,-3%[46.1 µM],2%,-7%,.,7%,-18%,3%
COc1ccc(S(=O)(=O)c2cn(Cc3ccccc3)c3cc(F)c(F)cc3c2=O)cc1,-0.3%,11%[46.1 µM],23%[46.1 µM],.,2%,.,9%,.
Cn1nc(C(F)(F)F)cc1-c1ccc(S(N)(=O)=O)s1,.,0%[46.1 µM],9%,5%,.,1%,51%[activator],5%
CCOC(=O)C1CCN(C(=O)CN(C)S(=O)(=O)c2cc(C)ccc2OC)CC1,-5.8%,14%,5%,-15%,9%,-3%,6%,1%
COc1ccc(CCNC(=O)CSc2nc(-c3ccc(F)cc3)cc(C(F)(F)F)n2)cc1OC,-1.5%,1%[46.1 µM],4%[46.1 µM],.,1%,.,-15%,.
CCc1ccc(CN(Cc2cn[nH]c2-c2ccc(OC)cc2)C(=O)Nc2ccc(Br)cc2)cc1,-4.9%,0%[46.1 µM],4%[46.1 µM],.,1%,.,?,.
Cc1cc2c(cc(C(=O)N3CCC(C(=O)NC4CCCC4)CC3)n2Cc2c(F)cccc2Cl)o1,.,.,.,2%,.,-1%,?,4%&1%
COc1ccc(C)cc1Nc1nc(-c2c[nH]c3ccccc23)cs1,-3.3%,10%[46.1 µM],1%,-4%,16µM*,-14%,5%,?
Cc1occc1C(=O)NC1CCCN(Cc2ccc(Cl)cc2)C1 (stereo not given),.,?,?,-12%,.,-3%,?,6%
CCCCSc1ccc(NC(=O)c2cccnc2)cc1,-0.4%,-16%,8%,5%,10%,-3%,-11%,-69%
OC[C@@H](O)[C@H](O)C(/C=N/Nc1ccccc1)=N\Nc1ccccc1,.,-6%,-8%,114%,.,2%,9%,-7%
CCOC(=O)c1c(/N=C/c2cc(OC)cc([N+](=O)[O-])c2O)sc(C)c1C,-9.4%,?,0%,?,2%,-53%,-10%,-1%
CC(C)(C)NC(=O)Cn1nnc(-c2ccccc2NC(=O)c2cnccn2)n1,5.3%,-1%,13%,0%,11%,-7%,-5%,4%
O=S(=O)(c1cccc(-c2nc3n(n2)Cc2ccccc2-3)c1)N1CCCCC1,1.0%,5%,-4%,10%,-11%,0%,9%,?
Nc1c(C(=O)Nc2ccccc2F)sc2nc3c(cc12)CCCCCC3,-3.1%,?,-19%[46.1 µM],.,-12%,.,29%,.
COc1ccccc1NC(=O)CN1CCCCC1,0.4%,3%[46.1 µM],-5%,3%,-3%,4%,-21%,-2%
CCN(c1ccc(OC)cc1)S(=O)(=O)c1nnc(NC(=O)c2ccc(C)cc2)s1,.,.,.,5%,.,22%,-10%,-3%
COc1ccc(C(=O)OCc2cc(=O)n3nc(C4CC4)sc3n2)cc1OC,4.9%,.,27%[46.1 µM],.,-12%,.,-14%,.
O=C(Nc1cccc(C(F)(F)F)c1)C1CCN(S(=O)(=O)c2cccc3nsnc23)CC1,-10%,?,-10%[46.1 µM],.,-2%,.,?,.
COc1ccc(C(=O)O/N=C(\N)Cc2ccc(Cl)cc2Cl)cc1OC,-2.9%,?,20µM*,.,-14%,-81%,-2%,-42%
COc1cc(C(=O)Nc2nnc(CC(C)(C)C)s2)c([N+](=O)[O-])cc1OC,-5.8%,?,7%,.,-3%,0%,?,10%
O=C(CSc1nnc(C2COc3ccccc3O2)o1)Nc1ccc(F)cc1Cl (stereo not given),.,2%[46.1 µM],9%[46.1 µM],-12%,.,-1%,23%,.
Cc1ccc(CN2C(=O)CCC2C(=O)NCCc2ccccc2)cc1 (stereo not given),.,.,.,-7%,.,12%,-15%,2%
CCOc1ccc(CN2CCCC(CO)(Cc3ccc(F)cc3)C2)cc1 (stereo not given),.,7.9µM*,-40%[46.1 µM],-8%,.,-6%,1%,-3%
CNC(=O)c1c(NC(=O)c2cc(=O)c3cc(C)c(C)cc3o2)sc2c1CCCC2,-0.8%,?,22%[46.1 µM],.,7%,.,-26%,.
Cc1nn(-c2ccccc2)c(C)c1/C=N/NC(=O)CSc1nnc(SCc2ccc(Cl)cc2)s1,-2.0%,?,9.2µM*,-11%,-18%,8%,?,12%
COc1cc(NC(=O)CN(c2cc(C)cc(C)c2)S(=O)(=O)c2c(C)[nH]c(=O)[nH]c2=O)cc(OC)c1,-0.1%,1%&1%[46.1 µM],0%[46.1 µM],-6%,7%,2%,-12%&-5%,8%
O=C(c1ccco1)[C@@H]1[C@@H]2C(=O)N(c3ccc(F)cc3)C(=O)[C@@H]2C2c3ccccc3C=CN21 (stereo not given in full),-6.5%,.,.,.,-8%,?,.,6%
Cc1cc(C(=O)NNC(=O)c2ccccc2[N+](=O)[O-])c(C)o1,.,25%,19%,-4%,.,1%,11%,.
CC(C)CN(C(=O)c1ccc([N+](=O)[O-])s1)c1c(N)n(Cc2ccccc2)c(=O)[nH]c1=O,.,-19%,3%,1%,.,-3%,-30%,.
CCn1cc(C(=O)NCc2ccc(Cl)cc2)c(=O)c2cc(S(=O)(=O)N(C)C3CCCCC3)ccc21,-1.7%,2.8µM*,?,.,-16%,.,10%,.
CCCn1c(SCC(=O)OCC)nc(C(F)(F)F)cc1=O,.,5%[46.1 µM],0%,-11%,.,0%,2%,.
O=C(CN(c1ccccc1Cl)S(=O)(=O)c1ccccc1)NCc1ccccc1,.,-22%[46.1 µM],-12%[46.1 µM],-1%,.,-1%,-1%,7%
CN(CC#CC(O)(c1ccccc1)c1ccccc1)C(C)(C)C,.,?,3%,-4%,.,0%,-11%,-2%

# An excerpt from above, showing only Cruzain Triton and NS1 function inh:
SMILES	Cruzain Triton	NS1 function inh
Cc1ccc(-c2n[nH]c(=S)n2/N=C/c2c(C)nn(-c3ccccc3)c2C)cc1	0.8%	12%
Cc1ncsc1CCOC(=O)c1ccccc1	.	-7%
